Menin MLL FP FL = inhibitors of human menin-MLL interaction, wild-type MLL peptide | Fluorescence polarization, fluorescein-MLL peptide displacement from menin | FP activity change, % at 61.4 µM | 290,000 tested, under 10 active; inconclusive = falling polarisation curve, or a change in total fluorescence; inactive = total fluorescence flat and polarisation flat or rising; no compound was filed as active; the % refers to the polarisation; negative = inhibition;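 note: % of control where 0% means no effect; inhibitors lower the polarisation; unlabelled MLL peptide was the positive control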
TRPML1 blocker = inhibitors of human TRPML1 channel | Q9GZU1 | TRPML1-inducible cells, Ca2+ dye fluorescence, FDSS; hits give low values; inhibition of EC80 agonist-evoked calcium signal | activity change, negative = inhibition, % (no concentration beside the values) | hit rate 0.02% among 390,000; in the data active means activity change below about -50%; inconclusive means about -30% to -50%; inactive means above about -30%;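 note: stimulus is agonist 54-4 at its EC80 concentration; % is set by controls: 0 for no effect and ±100 for the full control effect; compound concentration not given in the record; the text of the record puts the active cut at -80%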
Target sequence (Q9GZU1 whole entry, looked up): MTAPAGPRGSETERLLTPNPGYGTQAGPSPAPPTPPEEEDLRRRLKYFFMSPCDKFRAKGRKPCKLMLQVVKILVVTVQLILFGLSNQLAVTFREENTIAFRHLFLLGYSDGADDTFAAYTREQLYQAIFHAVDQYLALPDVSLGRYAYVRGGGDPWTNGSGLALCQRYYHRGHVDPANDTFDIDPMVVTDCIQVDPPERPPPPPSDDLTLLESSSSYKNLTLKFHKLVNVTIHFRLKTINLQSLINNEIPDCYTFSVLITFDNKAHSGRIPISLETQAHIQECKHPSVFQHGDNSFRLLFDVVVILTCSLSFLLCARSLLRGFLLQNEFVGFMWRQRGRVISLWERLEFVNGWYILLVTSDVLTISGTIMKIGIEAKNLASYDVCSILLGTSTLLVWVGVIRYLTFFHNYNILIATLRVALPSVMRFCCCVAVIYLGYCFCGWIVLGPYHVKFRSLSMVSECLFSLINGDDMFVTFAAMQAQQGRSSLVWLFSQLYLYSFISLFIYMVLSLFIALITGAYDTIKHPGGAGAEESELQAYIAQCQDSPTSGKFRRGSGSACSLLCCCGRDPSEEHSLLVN
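TRPML1-DL cells, Tet-induced overnight (~16 h, 37 °C) at 1,500 cells/well, were loaded with Ca8 no-wash dye plus quencher for 45-90 min at room temperature. Compounds were pinned during FDSS kinetic reading; agonist 54-4 at EC80 (4 uM final) then added.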
gsp antagonist = antagonizes gsp, the McCune-Albright syndrome mutation | gsp-mutant cells, cAMP HTRF, 30 min; control for the full effect not named in the record | Potency, µM (series often up to 76.9 µM), without a hit: top-dose activity change, negative = inhibition, actives largely listed as inhibitors | hit rate 0.4% among 340,000 | AID 624288; active = falling curve of any shape with a large fitted effect; inconclusive = falling curve, mostly with a smaller effect; inactive = flat or rising curve; cell line not stated here;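 note: intracellular cAMP measured with PDE inhibitor Ro 20-1724 present during compound exposure; potency is the fitted concentration of half-maximal effect; % is set by controls: 0 for no effect and ±100 for the full control effect; nearly all actives have a fitted effect of over 65% in size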
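HTRF cAMP read-out (cAMP-d2 plus anti-cAMP antibody-K in lysis buffer, 30 min RT). Before lysis, cells are exposed to compounds with […] for 30 min at 37C in DPBS containing Ca/Mg, BSA and Tween 20.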
TRPML1 agonist = activates the human TRPML1 channel. TRPML1-expressing cells, Ca2+ dye fluorescence, FDSS; host cell line not named in the record; reference of the full effect not given here. activation, % (no concentration beside the values). hit rate 0.12% among 410,000. AID 624414; in the data active = activation above about 50%; inconclusive = about 30% to 50%; inactive = below about 30%; note: 0% is about no effect; the text of the record puts the active cut at 80%
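TRPML1-DL cells, Tet-induced overnight (~16 h, 37 degrees C), loaded 45-90 min at room temperature with Ca8 no-wash calcium dye plus quencher. FDSS fluorescence: 10 s baseline, compound pin-transfer, 110 s agonist read, then EC80 54-4 (4uM final) and 110 s antagonist read.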
gsp agonist = activates gsp, the McCune-Albright syndrome mutation; Potency, µM (top dose mostly 76.9 µM), without a hit: at the highest dose activation (cAMP increase), most hits filed as activators; hit rate 0.13% among 340,000; gsp mutant cells, cAMP HTRF, 30 min; control for the full effect not named in the record; active = well fitted activation curve with a large enough effect; inconclusive = small, poorly fitted or top-dose-only effect, or another doubt; inactive = no such curve, though single readings can be large or run the other way; cell line not stated here;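 note: phosphodiesterase inhibitor Ro 20-1724 added with compounds to block cAMP breakdown; potency is the fitted concentration of half-maximal effect; nearly all actives have a fitted effect of over 60% in size; about a fifth of the inactives were tested at one dose only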
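Cells stably selected in G418 were plated at 2000/well, grown 16-24 hr, then given compounds in DMSO with the PDE inhibitor […] (300 uM solution added) for 30 min at 37C; cAMP was read by HTRF.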
ClpP mod = qHTS Assay for Activators of ClpP | hit rate 1.9% among 340,000 | ATP-dependent Clp protease proteolytic subunit (Bacillus subtilis (strain 168)), P80244 | purified B. subtilis ClpP, FRET peptide cleavage, 20 min | Potency, µM (highest dose often 57.5 µM), for inactives: top-dose activity change, negative = active; active = well fitted falling curve with a large enough effect; inconclusive = small, poorly fitted or top-dose-only effect; inactive = no such curve, though single readings can be large or run the other way; note: potency is the fitted concentration of half-maximal effect; the source files actives as falling curves though it sought activators and does not explain the sign; nearly all actives have a fitted effect of over 65% in size; many hits overshoot -100%
Target sequence (P80244 whole entry, looked up): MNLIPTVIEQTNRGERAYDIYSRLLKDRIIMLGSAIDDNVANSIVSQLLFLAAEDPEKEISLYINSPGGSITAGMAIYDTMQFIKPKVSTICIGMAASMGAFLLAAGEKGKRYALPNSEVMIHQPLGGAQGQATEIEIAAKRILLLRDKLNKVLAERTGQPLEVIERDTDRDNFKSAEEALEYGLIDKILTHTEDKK
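Buffer: 100 mM Tris/HCl pH8, 100 mM KCl, 0.05% low protease BSA, 2.5% glycerol, 0.01% Tween-20. ClpP 10 microg/mL final; 20 min RT; delta FRET normalized to ADEP and DMSO controls.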
* marks the source's active call; other numbers are inactive results; ? = inconclusive; . = no result given; & = joins results of further samples; [ ] = dose if it differs, or a comment.

SMILES | Menin MLL FP FL | TRPML1 blocker | gsp antagonist | TRPML1 agonist | gsp agonist | ClpP mod
COc1ccc(NC(=O)CSc2n[nH]c(-c3ccncc3)n2)c([N+](=O)[O-])c1 | . | 3 | -23% | 0.3 | -1%[15.4 µM] | -2.7%
Nc1cc(N)nc(SCC(=O)NCC(=O)Nc2ccc(F)c(F)c2F)n1 | . | 9 | 12% | 0.0 | -1%[15.4 µM] | 1.9%
O=C(COc1ccccc1Cl)NC(=S)N1CCc2ccccc21 | 4.4 | -2 | -8% | -0.6 | -6% | 0.3%
C[C@H](O)[C@@H]1C(=O)N2CCc3ccc(N4CCN(C)CC4)cc3[C@@H]2C[C@@H]1N(C)C(=O)NC1CCCCC1 | . | 54 | 2% | 0.4 | . | -2.8%
COc1ccccc1Cc1c(-c2ccccc2)nc2c(C)cc(Br)cn12 | . | -6 | . | 0.5 | . | -6.1%
COc1ccc(OC)c2c(C)cc(N3CCN(C(=O)c4ccc(F)cc4)CC3)nc12 | -0.9 | -6 | -19% | 1.6 | -18% | 20µM*
CCCCNC(=O)c1onc(CSc2cc(C)cc(C)c2)c1C(=O)O | 0.8 | 5 | -24% | 1.2 | 0% | 2.2%
CCc1ccc(S(=O)(=O)N/N=C\c2ccc([N+](=O)[O-])o2)cc1 | 8.7 | 5 | 4% | -0.1 | -11% | -1.6%
O=C(NCc1ccc(-n2cccc2)cc1)c1cccc(F)c1 | 3.0 | -19 | 5% | 0.5 | 16% | -0.1%
COc1ccc(/C=C(\NC(=O)c2ccccc2)C(=O)NNC(=O)CCN2CCOCC2)cc1 | -1.1 | -6 | 11% | -0.3 | -33%[inhibitor] | -0.5%
COc1cc(/C=N/NC(=O)CNC(=O)c2ccccc2)ccc1OC(=O)c1cccs1 | -0.8 | 8 | -3% | 0.9 | -21% | -6.2%
Cc1ccc2c(CC(=O)Nc3nc(C)cs3)coc2c1 | 3.9 | 46 | -8% | 0.5 | 15% | 1.1%
Cc1ccc(CNC(=O)CCSCc2ccccc2C)cc1 | 1.7 | . | 5% | . | 14% | 0.4%
FC(F)(F)c1cc(-c2cccc(Br)c2)nc2ncnn12 | . | -10 | . | -0.1 | . | -2.1%
CC(=O)c1cccc(NC(=O)c2nc3ccccc3n(C)c2=O)c1 | . | -1 | . | 0.7 | . | -1.2%
CC(=O)Nc1ccc(/C=C/c2noc(-c3ccccc3O)n2)cc1 | 1.0 | -22&8 | 4% | 0.7&0.0 | 3% | 4.0%&-6.6%
Cc1c(C(=O)N2CCN(c3ccc(F)cc3)CC2)oc2c1C(=O)CCC2 | . | -5 | 3% | 2.7 | -4% | 0.6%
Cc1ccc(C(=O)O)cc1NC(=S)NC(=O)c1ccc(-c2ccc(Cl)cc2)o1 | 1.6 | . | -16% | . | ? | 4.1%
Cc1ccc2c(c1)[nH]c1c(=O)n(Cc3ccco3)cnc12 | -0.4 | . | 10% | . | -13% | -11%
Cc1cc(C(=O)Nc2ccccc2)c2ccccc2n1 | 2.1 | 2 | 7% | -0.1 | -1% | 0.1%
O=C(NCCc1cn2ccsc2n1)c1cccs1 | -14 | 5 | -2% | 0.1 | 8% | -1.7%
COc1ccc2nc(NC(=O)C3CCN(S(=O)(=O)c4cccs4)CC3)sc2c1 | -0.2 | -9 | -56% | 0.5 | -24% | -3.2%
Cc1[nH]nc2c1C(CC(C)C)C(C#N)=C(N)O2 (configuration not stated) | 9.3 | -7 | 0% | 0.6 | -1%[15.4 µM] | .
COc1cccc(C(=O)Nc2nnc(SCC(=O)NC3CC3)s2)c1 | -7.4 | 2 | -13% | 0.0 | -3%[15.4 µM] | .
O=C1OC(c2ccccc2)/C(=C(/O)c2ccc(Cl)cc2)C1=O (configuration not stated) | 0.9 | -5 | -3% | 1.0 | ? | -2.0%

Retrieved by compound from above, 3 records:
SMILES | Menin MLL FP FL | TRPML1 blocker | gsp antagonist | TRPML1 agonist | gsp agonist | ClpP mod
FC(F)(F)c1cc(-c2cccc(Br)c2)nc2ncnn12 | . | -10 | . | -0.1 | . | -2.1%
CCCCNC(=O)c1onc(CSc2cc(C)cc(C)c2)c1C(=O)O | 0.8 | 5 | -24% | 1.2 | 0% | 2.2%
COc1ccc(NC(=O)CSc2n[nH]c(-c3ccncc3)n2)c([N+](=O)[O-])c1 | . | 3 | -23% | 0.3 | -1%[15.4 µM] | -2.7%

(next part)
SMILES | Menin MLL FP FL | TRPML1 blocker | gsp antagonist | TRPML1 agonist | gsp agonist | ClpP mod
CCCN1C(=O)/C(=C/c2ccco2)SC1=Nc1ccc(OC)cc1 | ? | 9 | -5% | 0.7 | ? | 0.5%
COc1ccc(Cl)cc1C(=O)NCc1cn(C)nc1C | -2.4 | 9 | 11% | 0.4 | 8% | 7.5%
COCO/C=C(\NC(C)=O)c1ccccc1 | . | -3 | -4% | 0.1 | -19% | -0.4%
CC1CC(C)CN(C(=O)CN2C(=O)NC3(CCCCCCC3)C2=O)C1 (configuration not stated) | . | 0 | 12% | 0.7 | -2% | 1.2%
CC(=O)N(C(C)=O)n1c(C)nc2sc3c(c2c1=O)CCCC3 | -0.6 | -1 | -3% | 0.3 | -52%[inhibitor] | 0.6%
Cc1ccc(S(=O)(=O)c2nc(S(C)(=O)=O)sc2N2CCC(C)CC2)cc1 | . | ? | -15% | 0.5 | 7% | 1.1%
CN(C)c1ccc(Cl)c(NC(N)=S)c1 | . | -11 | . | -0.6 | -49%[inhibitor] | -0.3%
O=C1c2cccc(OCc3ccc(F)cc3)c2CCN1Cc1ccccc1 | 0.3 | 6 | -6% | 2.1 | -18% | -2.1%
O=C(COC(=O)c1cccc(O)c1)NCc1ccc2c(c1)OCO2 | 2.0 | 19 | 9% | 0.1 | 1% | -0.9%
CC(C)Cc1nc2n[nH]c(N)c2c2c1CCC2 | 0.1 | -10 | -26% | -1.1 | -1% | 1.6%
Cc1ccc([C@@H]2CC(=O)[C@@H]3CN(S(=O)(=O)c4ccc(C)cc4)[C@H](c4ccc(Cl)cc4)C[C@@H]3N2S(=O)(=O)c2ccc(C)cc2)cc1 | . | 13 | . | 2.3 | ? | 2.0%
COCCCn1c(=O)c2sccc2n2c(CCCC(=O)NCc3ccccc3)nnc12 | 1.3 | 11 | -3% | -0.9 | ? | -9.0%
COc1cccc(NC(=O)CN2C(=O)NC(CCc3ccccc3)C2=O)c1 (configuration not stated) | . | 24 | 8% | -0.4 | -105%[inhibitor] | -0.3%
O=c1cc(-c2ccc(Cl)cc2)[nH][nH]1 | -0.6 | -1 | -6% | 1.4 | 16% | -3.2%
CCOc1ccc(Oc2nc(C)cc(OC)n2)nn1 | -5.2 | ? | 8% | 0.1 | -31% | ?
O=C(O)c1ccc(N/N=C/c2ccc3nccnc3c2)cc1 | ? | 11 | -7% | -0.3 | ? | 1.0%
O=C(NC1=NCCS1)c1ccc(F)c(S(=O)(=O)N2CCOCC2)c1 | . | -12 | -2% | -0.7 | 10% | -1.2%
CN1CCN(c2ccc(C(=O)NC3CCCCC3)cc2[N+](=O)[O-])CC1 | -2.4 | -2 | 7% | 0.7 | -19% | -0.2%
Cc1ccccc1NC(=O)c1c(NC(=O)Cc2ccccc2)sc2c1CCC2 | . | 67 | . | 1.6 | . | 4.0%
COc1cccc2cc3c(=O)n(-c4ccccc4)nc-3oc12 | ? | -8 | 1% | 0.1 | -2% | -1.0%
CC1CCCCC1NCC(=O)NCc1ccc(F)cc1 (configuration not stated) | -1.7 | -1 | -12% | 0.3 | 0%[15.4 µM] | -2.0%
CCN(c1ccccc1)S(=O)(=O)c1ccc(Cl)c(NC(=O)CSc2nncn2C)c1 | 3.2 | 3 | -2% | -0.7 | 9%[15.4 µM] | -2.1%
COc1cccc(C2C(C(=O)c3ccco3)=C(O)C(=O)N2CCCN2CCOCC2)c1OC (configuration not stated) | . | 15 | 9% | -0.2 | -13%[15.4 µM] | .
COc1ccc(C(=O)N/N=C/c2ccccn2)cc1OC | 0.4 | 28 | -3% | -0.1 | 2%[15.4 µM] | -0.4%
O=C(COC(=O)c1cc2ccccc2cc1O)Nc1cccnc1Cl | 5.2 | -16 | -13% | -0.4 | -13% | 0.6%

(cont.)
SMILES | Menin MLL FP FL | TRPML1 blocker | gsp antagonist | TRPML1 agonist | gsp agonist | ClpP mod
O=C(CCN1C(=O)/C(=C\c2cccs2)SC1=S)Nc1nccs1 | 6.2 | -8 | 13% | -0.5 | -8% | 4.0%
COc1ccc(C(=O)OCC(=O)Nc2ccc([N+](=O)[O-])cc2OC)c(O)c1 | -1.0 | 7 | 8% | -0.9 | 16% | .
Fc1ccc2nc3[nH]c4ccccc4c3nc2c1 | -10 | 17 | 4% | 1.0 | 14% | -18%
O=C(CN1C(=O)C2C3CC(C(Br)C3Br)C2C1=O)Nc1ccc(C(=O)O)cc1 (configuration not stated) | -1.2 | -5 | 5% | -0.4 | -6% | 1.4%
Cc1ccc(CNC(=O)c2ccc3c(c2)nc2n3CCOC2)cc1 | . | -5 | . | 2.1 | . | 1.9%
CC(O)C(NS(=O)(=O)c1ccc(Cl)cc1)C(=O)OCc1cc([N+](=O)[O-])cc2c1OCOC2 (configuration not stated) | -1.9 | -20 | -9% | 0.1 | 20%[15.4 µM] | .
Cc1cccc(C)c1NC(=O)CNC(=O)C(C)N(C)CC(=O)Nc1ccc(F)cc1 (configuration not stated) | . | -5 | 11% | 0.4 | 2% | 2.0%
COc1ccc(NC(=O)CN2CCCN(S(=O)(=O)c3ccc(F)cc3)CC2)c(OC)c1 | -0.9 | -3 | -7% | 2.6 | 1% | .
Cc1ccc(N(CC(O)CN2CCCCC2)S(=O)(=O)c2ccccc2)cc1 (configuration not stated) | -1.7 | 32 | 16% | 0.2 | -38%[inhibitor] | -1.3%
COc1ccc(-n2ncc(C(=O)NC3CC3)c2C2CCN(C(=O)OC(C)(C)C)CC2)cc1 | 4.9 | -13 | ? | -0.4 | 17% | 0.5%
Nc1cc(=O)[nH]c(=S)n1-c1ccccc1 | 2.1 | 6 | 5% | -0.3 | -39%[inhibitor] | -2.6%
NC(CC(=O)NC(c1ccccc1)(c1ccccc1)c1ccccc1)C(=O)O (configuration not stated) | -1.4 | 2 | 8% | -0.7 | -7%[15.4 µM] | .
CC(C)CCn1nnnc1C(C(C)C)N1CCC(C(N)=O)CC1 (configuration not stated) | 4.0 | 35 | 7% | -0.4 | 15% | 1.5%
CCN1C(=O)/C(=C\N(C)C)S/C1=N\S(=O)(=O)c1ccc(C)cc1 | -5.9 | 18 | -6% | 0.6 | 6%[15.4 µM] | .
CCSc1nncn1/N=C/c1ccc(OC)c(OC)c1 | 0.4 | 2 | -11% | -0.9 | ? | -19%
COc1cc(C(=O)NCCC(C)C)c([N+](=O)[O-])cc1OC | 0.6 | -4 | 8% | -0.3 | -3% | 1.6%
Cc1oc(CSCC2CCCO2)cc1C(=O)O (configuration not stated) | 3.6 | 4 | 0% | 1.1 | -3% | 3.0%

Assay outcomes (PubChem)
